# Calb biofilm kill – mixtures killing C. albicans biofilm. C. albicans biofilm persisters + clotrimazole, fluorescence viability; primary screen in compound mixtures of four per well. 120,000 compounds, 0.02% hits. inhibition, % at 7.6 µM;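 active means inhibition above 30.3% in the primary screen of four-compound pools, then above 30% when the compound was retested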;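 further: compounds exposed to preformed 24 h biofilms for 48 h; the number belongs to the whole pool; some results filed as inactive read as strong as hits; inactives centre near 12; 0% = biofilm with clotrimazole alone and 100% = kill control; retested singly at about 60 µM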
#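 Probe or stimulus – Clotrimazole 50 µg/mL co-treatment · System – C. albicans biofilms · Schedule – 24 h biofilm formation, then 48 h compound exposure, 37 °C · Evaluation – percent inhibition of biofilm viability · Technique – 2-h Alamar Blue fluorescence, 535/590 nm excitation/emission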
# * = called active by the depositor. A portion of the library; rates above refer to the full screens.
# Preview, 3 compounds:
SMILES,Calb biofilm kill
COCCCn1c(=O)/c(=C\c2ccccc2OC(F)F)s/c1=C(/C#N)C(=O)NC(C)C,26
C=CSc1sc(Cl)c(N2CCOCC2)c1[N+](=O)[O-],10
COc1cccc(-c2noc(CCC(=O)NCC3CCCO3)n2)c1 (stereo unspecified),11

# Results, from the first entry:
SMILES,Calb biofilm kill
COCCCn1c(=O)/c(=C\c2ccccc2OC(F)F)s/c1=C(/C#N)C(=O)NC(C)C,26
C=CSc1sc(Cl)c(N2CCOCC2)c1[N+](=O)[O-],10
COc1cccc(-c2noc(CCC(=O)NCC3CCCO3)n2)c1 (stereo unspecified),11
O=C(COC(=O)c1ccccc1Br)Nc1cc(S(=O)(=O)N2CCOCC2)ccc1N1CCCC1,-9
O=C(O)CNC(=O)C12CC3CC(CC(Cl)(C3)C1)C2,14
COCCOC(=O)c1cc(C(=O)c2cc(Cl)ccc2O)coc1=N,5
CCOC(=O)C(=O)Nc1ccccc1C(=O)OCC,16
O=S(=O)(NC1=NCCC1)c1cccc(NS(=O)(=O)c2ccc(OC(F)(F)F)cc2)c1,-5
CCc1nnc(NC(=O)c2sc3nc4c(cc3c2N)CCCCCC4)s1,17
Nc1ccc(O)cc1C(=O)OCC(=O)c1ccc(C2CCCCC2)cc1,7
CCCC(=O)Nc1cc(Cl)ccc1C,15
O=C(NC1CCCCC1)C(=S)NC1CCCCC1,7
COc1ccc(O[C@H]2C=C[C@@H](c3ccccc3)O[C@@H]2CO/N=C/C[C@@H]2C=C[C@H](OC(C)=O)[C@@H](COC(C)=O)O2)cc1,8
S=c1[nH]nc(-c2ccc(Cl)cc2)n1-c1cccnc1,14
CCC(C)NC(=O)CSc1c2c(nc3ccccc13)CCCC2 (stereo unspecified),0
COc1ccc(NC(=O)CC(CC(=O)O)c2cc(OC)c(OC)c(OC)c2)cc1 (stereo unspecified),17
Cc1ccccc1C(=O)N1CCC(C(=O)Nc2ccc3c(c2)OCO3)CC1,9
CC(=O)Nc1ccc(N2C(=O)c3ccc(C(=O)Nc4nnc(SCc5ccc(F)cc5)s4)cc3C2=O)cc1,5
O=C(Nc1ccc2oc(-c3ccccc3)nc2c1)c1ccco1,18
Cc1ccc(Sc2ccncc2S(N)(=O)=O)cc1,2
COc1ccc(NC2c3ccccc3C(=O)N2Cc2ccc3c(c2)OCO3)cc1 (stereo unspecified),20
CC(=O)Nc1ccc(S(=O)(=O)N2C(=O)c3cccc4cccc2c34)cc1,8
CCCn1c(=O)c(C(=O)N/N=C/c2ccccc2F)c(O)c2ccccc21,9
Cc1ccc(-c2csc3ncnc(-n4cnc5ccccc54)c23)cc1,3
CCOCC(=O)Nc1ncc(S(=O)(=O)c2ccc([N+](=O)[O-])cc2)s1,15
Cc1ccc(C2(c3noc(CN(C)CCO)n3)CCCC2)cc1,15
CC(C)(C)C(=O)NC(=S)Nc1sc2c(c1C#N)CCCCC2,25
C=CCn1c(SCc2nc3ccccc3c(=O)[nH]2)nc2scc(C3CC3)c2c1=O,-5
Nc1nc2ccccc2n1C(=O)c1ccccc1,13
Cc1ccccc1-c1ncc(CN2CCC(CO)(CCCc3ccccc3)CC2)cn1,7
CC(=O)Nc1ccc(Nc2cc(C)nc3c(-c4ccccc4)cnn23)cc1,16
O=C(Cc1ccc(Cl)cc1)Nc1ccncc1,14
O=C(O)CCNC(=O)/C(=C\C=C\c1ccccc1)NC(=O)c1ccccc1,23
Cc1ccccc1OCc1nnc(SCc2cc(=O)[nH]c3ccccc23)n1-c1ccccc1,-9
Cc1ccc(/C=N/Nc2ccc3ccccc3n2)o1,13
C#CCOCCOCCOCCNc1nc(N2CCN(C(=O)[C@H](CCCCN)n3cc(C(N)CO)nn3)CC2)nc(N2CCN(C(=O)[C@H](CCC(=O)O)n3cc(C(N)CC(C)C)nn3)CC2)n1 (stereo partly specified),-2
Cc1cccc(C)c1Nc1nnc(SCC(=O)c2ccc(Br)s2)s1,15
COc1ccc(Nc2ncnc3c2cnn3-c2cccc(C)c2)cc1OC,3
O=C(Nc1ccc(F)cc1)c1ccc(CSc2ccc(Cl)cc2)o1,24
O=C(NNc1nc2cc3c(cc2s1)OCCO3)c1ccccc1,11
O=C(COc1ccc(Cl)cc1Cl)NN=C1CCCCC1,14
O=C(/C=C/c1ccccc1)NC(NC(=S)Nc1ccc(C(=O)O)cc1)C(Cl)(Cl)Cl (stereo unspecified),13
Cc1ccc(C(=O)N/N=C/c2ccc(-c3ccccc3[N+](=O)[O-])o2)cn1,18
COc1cc2[nH]c(=O)n(CCC(=O)NCCCN3CCN(c4ccccc4F)CC3)c(=O)c2cc1OC,9
CN1C(=O)[C@@H]2[C@@H]3C[C@@H]([C@H]4ON=C(c5ccc(Cl)cc5Cl)[C@@H]34)[C@@H]2C1=O,15
O=C(NCc1ccccn1)C(=O)NN=C1CCCCCCC1,20
Cn1c(CNc2ccc(F)cc2)nnc1SCC(=O)NNC(=O)Cc1ccccc1,3
COC(=O)Nc1ccc2c(c1)N(C(=O)CCN1CCN3CCCC3C1)c1ccccc1CC2 (stereo unspecified),5
COc1cc(/C=C(\C#N)C(=O)Nc2cccnc2)ccc1OC(C)C,13
Cc1ccc(C(=O)NC(=S)/C=C2\N(C)c3ccccc3C2(C)C)cc1,10
O=C(CN1CCOCC1)Nc1ccccc1Sc1ccccc1,6
COc1cc(C)c(S(=O)(=O)N2CCCC2)cc1C(C)C,24
Cc1ccc(COC(=O)c2nn(C)c(=O)c3ccccc23)cc1,12
C=CCC(CC)C(=O)NC(=O)N1CCCc2ccccc21 (stereo unspecified),13
O=c1[nH]nc(SCCS(=O)(=O)c2ccc(F)cc2)n1-c1ccc2c(c1)OCCO2,-3
CCCCC1=CC2=C(c3ccco3)C(=O)C(C)(OC(=O)c3ccc(OC)cc3)C(=O)C2=CN1CCCN(CC)CC (stereo unspecified),17
COc1ccc(CNC(=O)C/C(C)=N/NC(=O)C23CC4CC(CC(C4)C2)C3)cc1,22
COc1ccc(C2c3c(ncn(Cc4ccco4)c3=N)Oc3ccc4ccccc4c32)cc1 (stereo unspecified),19
O=C(CN1CCCCC1)Nc1ccccc1Oc1ccccc1,15
O=[N+]([O-])c1ccc2c(c1)OCCOCCOCCOCCOCCOCCO2,15

# Among those listed so far, these contain bromine.
SMILES,Calb biofilm kill
O=C(COC(=O)c1ccccc1Br)Nc1cc(S(=O)(=O)N2CCOCC2)ccc1N1CCCC1,-9
Cc1cccc(C)c1Nc1nnc(SCC(=O)c2ccc(Br)s2)s1,15

# Next section:
SMILES,Calb biofilm kill
O=C(CN1C(=O)C2C3CCC(C3)C2C1=O)Oc1ccc2ccccc2c1 (stereo unspecified),21
CCOC(=O)CN(C(=O)COc1ccc2c(C)cc(=O)oc2c1)c1ccc(OCC)cc1,9
OCCC1CN(C2CCSCC2)CCN1C1CCCC1 (stereo unspecified),25
CC(C)c1ccc(NC(=O)COC(=O)CSc2nnc(N)s2)cc1,5
CCN(CC)CCN(Cc1cc2cc3c(cc2[nH]c1=O)OCCO3)C(=S)NCC1CCCO1 (stereo unspecified),10
Cc1nc2ccccn2c1-c1ccnc(SCc2ccc(Cl)cc2)n1,0
COC(=O)c1ccc(NC(=S)NC2c3ccccc3CC2O)cc1 (stereo unspecified),16
Cc1cc(NC(=O)CCCN2C(=O)c3cccnc3C2=O)ccc1Br,9
CC12CCC(C(=O)NNc3ccccc3)(OC1=O)C2(C)C (stereo unspecified),15
COc1cccc(C2CC(=O)Nc3n[nH]c(-c4ccccc4)c32)c1OC (stereo unspecified),17
c1ccc2[nH]c(NN=C3CCCCCC3)nc2c1,17
CCC(C)NC(=O)CSc1nnc(-c2c[nH]c3ccccc23)o1 (stereo unspecified),21
Cc1cccc(N2CCN(C(=O)/C=C/c3cccs3)CC2)c1C,17
Cn1cc(CN2CCN(c3ncccn3)CC2)c(-c2cccc(Cl)c2)n1,8
O=S(=O)(c1ccc(F)cc1)N1CC=C(c2ccccc2)CC1,10

# In another format: results already given
molecule	Calb biofilm kill
Cn1cc(CN2CCN(c3ncccn3)CC2)c(-c2cccc(Cl)c2)n1	8
Cc1cccc(N2CCN(C(=O)/C=C/c3cccs3)CC2)c1C	17
c1ccc2[nH]c(NN=C3CCCCCC3)nc2c1	17
Cc1cc(NC(=O)CCCN2C(=O)c3cccnc3C2=O)ccc1Br	9
OCCC1CN(C2CCSCC2)CCN1C1CCCC1 (stereo unspecified)	25
COC(=O)c1ccc(NC(=S)NC2c3ccccc3CC2O)cc1 (stereo unspecified)	16

# Another view of some results above.
canonical_smiles	Calb biofilm kill
Cn1c(CNc2ccc(F)cc2)nnc1SCC(=O)NNC(=O)Cc1ccccc1	3
COC(=O)Nc1ccc2c(c1)N(C(=O)CCN1CCN3CCCC3C1)c1ccccc1CC2 (stereo unspecified)	5
COc1cc(/C=C(\C#N)C(=O)Nc2cccnc2)ccc1OC(C)C	13

# Further records:
SMILES,Calb biofilm kill
Cc1ccc(S(=O)(=O)CCC(=O)Nc2cccc(C)c2)cc1,7
CN(C)c1cccc(C(=O)NNC(=S)NC2CC3CCC2C3)c1 (stereo unspecified),16
COC(=O)COc1ccc(S(=O)(=O)N2CCN(c3ccccc3)CC2)cc1,3
COCc1cc(C)nc(OCC(=O)N/N=C/c2ccc(O)cc2O)c1C#N,35
CCOP(=O)(OCC)C(NC(=O)c1cccs1)C(F)(F)F (stereo unspecified),1
O=C(O)c1cc(N/N=C/c2ccc(OCc3ccccc3)cc2)ccc1Cl,14
O=S(=O)(CCN1CCN(c2ccccn2)CC1)c1ccc(Cl)cc1Cl,14
CCOC(=O)C1NN=C(C(=O)c2ccccc2)C1c1ccc(Cl)cc1 (stereo unspecified),13
Clc1nssc1=Nc1ccccc1,8
O=C(CNC(=O)C(c1ccccc1)c1ccccc1)N/N=C\c1cccc(O)c1,2
Nc1nc(CCl)nc(Nc2cccc3ccccc23)n1,14
O=C(CSc1nc2c(c(=O)[nH]1)CN(Cc1ccc(F)cc1)CC2)Nc1ccc(F)cc1,18
Cc1cc(-c2nnc(CCC(=O)N3CCN(Cc4cccnc4)CC3)o2)c(C)o1,11
CCN(CC)S(=O)(=O)c1cccc(NC(=O)c2ccc(C#N)cc2)c1,17
Cc1nn(-c2ccc(C(=O)O)cc2)c2c1C(=O)CC(C)(C)C2,29
Cc1nc(N2CCOCC2)nc(N2CCCC2)c1[N+](=O)[O-],15
Cn1ncc(Br)c1C(=O)OCC(=O)Nc1nc(-c2ccccc2)cs1,17
O=C(Nc1cccc(Cl)c1)c1cc(F)cc2c1OCOC2,15
CCOc1ccc(N2C(=O)CC(N(CCc3ccc(OC)c(OC)c3)C(=S)Nc3ccccc3)C2=O)cc1 (stereo unspecified),7
CCOC(=O)C1(Cc2ccccc2Cl)CCN(S(=O)(=O)N(C)C)CC1,14
O=C(Nc1ccc(Oc2ncnc3cc(Cl)ccc23)nc1)c1ccc(F)cc1,14
C/C(Cn1nnc2ccccc21)=N\OC(=O)c1cc(F)c(F)cc1Cl,9
O=c1[nH]nc(SCc2ccccc2Cl)n1-c1ccc2c(c1)OCCO2,21
CC(=O)Nc1ccc2sccc2c1,13
S=C(NCCc1ccccc1)N1CCN(Cc2ccccc2)CC1,0
COC(=O)c1c(N2C(=O)[C@H]3[C@@H](C2=O)[C@]2(C(=O)Nc4c(C)cccc42)N2CCC[C@@H]32)sc(C)c1C,15
CCOC(=O)C1=C(O)C(=O)N(c2ccc(S(N)(=O)=O)cc2)C1c1cccc([N+](=O)[O-])c1 (stereo unspecified),22
O=C(O)CP(=O)(O)O,9
O=C(CN1CCC(n2nnc3cc(F)ccc32)CC1)NCCc1ccccc1,9
O=C(CSc1nc(O)cc(=O)[nH]1)N1c2ccccc2Sc2ccccc21,24
CC1(C)CC(=O)C(N=Nc2cccnc2)=C(O)C1,7
Cc1ccc(NC(=O)C(=O)c2cn(CC(=O)N3CCCCC3)c3ccccc23)cc1,16
Cc1cc(N2CCCC2=O)ccc1S(=O)(=O)N1CCOCC1,15
Cc1ccsc1/C=N/NC(=O)c1cccnc1,8
C/C=C(\C)CN1CCCC(CO)(Cc2ccccc2)C1 (stereo unspecified),20
CC1CCC2=NN(C(=O)c3ccco3)C(O)(C(F)(F)F)C2C1 (stereo unspecified),8
O=C(c1ccc(S(=O)(=O)c2cccc(Cl)c2)c([N+](=O)[O-])c1)N1CCN(Cc2ccccc2)CC1,13
O=C(CNC(=O)Cc1ccccc1)NCC(=O)OCC(=O)c1ccc(Cl)cc1,11
Cc1ccc2nsnc2c1NC(=O)Cc1ccc(Cl)cc1,5
c1ccc2c(CCNc3ncnc4nc[nH]c34)cccc2c1,11
COc1cc(CNCCCO)ccc1OCC(=O)NC(C)(C)C,12
COc1ccc(CCNC(=O)COC(=O)COc2ccc(C#N)cc2)cc1,7
Nc1c(C(=O)N/N=C/c2ccc(Cl)cc2)cnn1-c1ccccc1,28
CCc1ccc(-c2cn(C3CCCCC3)c(=S)[nH]2)cc1,12
O=C(O[C@@H]1OC2COC(=O)c3cc(O)c(O)c(O)c3-c3c(cc(O)c(O)c3O)C(=O)O[C@@H]([C@H]1O)[C@@H]2O)c1cc(O)c(O)c(O)c1,6
O=C(CSc1ccc(-c2ccco2)nn1)N1CCCCCC1,8
COc1ccc(C(=O)Nc2ccc3[nH]c(-c4cccc(OC)c4)cc(=O)c3c2)cc1,13
O=C(NCCOCc1ccccc1)C(c1ccccc1)c1ccccc1,23
CCOC(=O)c1c(-c2ccccc2)oc2ccc(O)c(CN3CCN(C)CC3)c12,15

# Screening data as filed in PubChem BioAssay.
